# HNF4A DNA FP: change in binding of human HNF4 alpha to DNA; P41235; HNF4a-FITC DNA binding, fluorescence polarization, 1 h; activity change, % at 10 µM; 0.3% of 360,000 active; AID 1224865; in the data active = activity change above about 30%, passing the limit was not always enough;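 note: controls were the assay level and a saturating level of protein; the project sought stronger binding though the title names inhibitors; some compounds called inactive have numbers as strong as hits; positive values seem to mean higher polarization but the record does not say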
# E coli growth: E. coli growth inhibition; Escherichia coli growth, OD600, 23 h; active compounds read low; 0.21% of 330,000 active; OD600 absorbance (no concentration beside the values); AID 1053175;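 active = OD600 absorbance below the run mean of sample wells minus 3.6 SD, in any replicate, cut at about 0.56 in these data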;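 note: stock transfer was 300 nL into about 60 µL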
# ALR H2O2 inh: inhibitors of human sulfhydryl oxidase ALR; P55789; purified ALR, DTT oxidation, H2O2 HRP-luminol luminescence; inhibition, % (no concentration beside the values); 3.8% of 290,000 active;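 active = mean and each replicate at 75% or more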;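 note: stock transfer was 7.5 nL into about 7.5 µL; 0% = neutral wells and 100% = wells with inactivated enzyme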
# Target sequence (P55789 whole entry, looked up): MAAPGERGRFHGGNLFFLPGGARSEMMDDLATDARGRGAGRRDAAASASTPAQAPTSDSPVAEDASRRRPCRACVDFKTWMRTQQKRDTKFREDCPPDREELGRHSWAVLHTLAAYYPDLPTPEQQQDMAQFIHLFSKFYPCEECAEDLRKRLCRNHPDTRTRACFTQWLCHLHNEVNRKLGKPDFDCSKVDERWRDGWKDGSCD
# B2AR ag: activates human beta-2 adrenergic receptor causing internalization; P07550; Am2.2-beta2AR cells, FAP receptor internalization, flow cytometry; reference of the scale not given here; response, % (test concentration not listed); 0.43% of 340,000 active;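 active = response above a set limit, near 3 SD of response in nonfluorescent compounds, cut at about 42% in these data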;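 note: stock transfer was 100 nL into about 11 µL; a reference agonist was the positive control; negative values mostly stem from fluorescent compounds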
# Target sequence (P07550 whole entry, looked up): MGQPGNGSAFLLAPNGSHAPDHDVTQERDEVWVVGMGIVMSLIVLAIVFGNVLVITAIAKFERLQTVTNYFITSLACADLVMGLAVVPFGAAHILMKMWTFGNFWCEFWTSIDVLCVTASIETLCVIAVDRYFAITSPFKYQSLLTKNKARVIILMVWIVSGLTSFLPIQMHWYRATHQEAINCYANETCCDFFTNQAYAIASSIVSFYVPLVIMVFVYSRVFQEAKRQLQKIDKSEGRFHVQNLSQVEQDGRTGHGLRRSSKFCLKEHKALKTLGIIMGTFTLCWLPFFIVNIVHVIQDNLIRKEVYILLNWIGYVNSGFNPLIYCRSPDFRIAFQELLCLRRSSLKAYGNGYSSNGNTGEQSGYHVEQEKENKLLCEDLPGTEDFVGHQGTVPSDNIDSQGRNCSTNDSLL
# UCH37 inh: human UCH37 deubiquitinating enzyme inhibition | purified proteasome/UCH37, Ub-AMC cleavage fluorescence | inhibition, % (concentration not given with the values) | Q9Y5K5 | 0.33% of 330,000 active;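 active = mean of two replicates above 20%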;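 note: 0% = compound-free wells with enzyme and 100% = wells lacking proteasome; stock transfer was 100 nL into about 20 µL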
#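 Test system – human UCH37 enzyme supplied as purified proteasome complex · Incubation – 30 min preincubation with enzyme, 25 min cleavage at room temperature · Detection – AMC fluorescence from Ub-AMC cleavage, excitation 355 nm, emission 460 nm · Benchmarks – no-proteasome wells (full inhibition) and compound-free wells (no inhibition)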
# Ecoli rRNA inh: inhibitors of bacterial rRNA selective over humanized ribosomes; E. coli WT GFP vs humanized-ribosome RFP mutants, fluorescence, 24 h; active compounds read low; DMSO median 0, no signal -100; AID 720706; 1.6% of 350,000 active; GFP signal change (wild-type ribosome), % (test concentration not listed);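 active = significant combined selectivity score with lowered wild-type GFP, culture density cut under 30%, mutant RFP and density less affected; inactive = any of these conditions unmet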; note: one replicate is shown; some compounds called inactive have numbers as strong as hits
# FGF22 binding: binders of recombinant human FGF22 by thermal shift. AID 651658. SYPRO orange fluorescence; percent of sucrose octasulfate shift, DMSO zero. 1.5% of 340,000 active. Q9HCT0. calls only at 9.99 µM;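 active = melting point raised past a set limit in the mean and every replicate; three in four hits are not shown here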
# Target sequence (Q9HCT0 whole entry, looked up): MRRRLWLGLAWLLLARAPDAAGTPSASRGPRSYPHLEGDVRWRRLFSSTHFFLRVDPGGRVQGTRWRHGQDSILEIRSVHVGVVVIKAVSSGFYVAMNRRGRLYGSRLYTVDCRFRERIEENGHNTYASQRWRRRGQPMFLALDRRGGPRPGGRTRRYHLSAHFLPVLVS
# Ecoli rRNA inh OD600: further read-out of Ecoli rRNA inh, marked with its call; OD600 change, %; measured here: OD600 growth;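 optical density of the mix in the first replicate; 0 = DMSO median and -100 = no signal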
# Ecoli rRNA inh RFP: second read-out of Ecoli rRNA inh, no call of its own (marks repeat the call); RFP signal change, %; measured here: RFP humanized mutant strains;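 first replicate; 0 = DMSO median and -100 = no signal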
# * marks the source's active call; other numbers are inactive results; i = inactive; nt = no result given; & = joins results of further samples.
SMILES,HNF4A DNA FP,E coli growth,ALR H2O2 inh,B2AR ag,UCH37 inh,Ecoli rRNA inh,Ecoli rRNA inh OD600,Ecoli rRNA inh RFP,FGF22 binding
Cc1cc(N)c(-n2cc3c(=O)n(C)c(=O)n(C)c3c2)cc1C,1.2,0.73,-25,3,-17,nt,nt,nt,nt
CCN(CC)CCN(Cc1cc2cc3c(cc2[nH]c1=O)OCO3)C(=S)NCCCN(C)C,2.5,0.62,-6,4,-203,16,11,5.9,i
CC(NC(=O)Nc1ccccc1O)(C(F)(F)F)C(F)(F)F,0.0,0.74,14,1,2.0,nt,nt,nt,nt
CC1CCN(C(=S)c2cn(Cc3cccc(F)c3)c3ccccc23)CC1,-1.8,0.73,-9,6,4.2,0,-1,2.4,i
Cc1ccc(S(=O)(=O)CCC(=O)OCC(=O)Nc2sccc2C#N)cc1,5.5,nt,nt,nt,nt,3,3,1.2,i
O=C(CN1c2cccc3cccc(c23)S1(=O)=O)N1CCN(c2ccccc2)CC1,-2.7,0.64,0,-6,-25,nt,nt,nt,i
O=C(O)c1ccccc1C(=O)Nc1ccc(Br)c2cccnc12,1.5,0.67,-31,-1,3.0,-1,-6,3.5,nt
COC(=O)c1c(S(=O)(=O)NCc2ccccc2)sc(C(=O)O)c1C,-2.3,0.71,-2,-7,-0.3,nt,nt,nt,nt
CC(=O)c1ccc(NS(=O)(=O)c2c(C)cc(C)cc2C)cc1,-0.8,nt,1,-1,nt,-6,-2,-2.4,i
N=c1n(Cc2ccccc2)c2ccccc2n1CC(O)COc1ccc(Cl)cc1Cl (stereo unspecified),-0.4,0.5*,nt,29,4.9,-53,-80,-20,nt
Cn1cccc1-c1nc2ccc(NC(=O)c3ccccc3)cc2[nH]1,-2.5,0.67,nt,8,4.3,nt,nt,nt,nt
COC(=O)c1cnn(-c2nc(OC)cc(OC)n2)c1C,-2.4,0.68,-2,-1,1.7,0,4,-4.5,i
O=C(COC(=O)c1ccc(-n2cnnn2)cc1)Nc1cc(Cl)ccc1F,2.7,0.67,1,-14,0.9,10,12,-2.1,i
CCC[C@@H](CN1CCC[C@H]1CN1C(N)=NC[C@H]1C(C)C)N1C[C@@H]([C@H](C)CC)N(CCCC2CCCC2)C1=N,0.6,0.65,nt,-7,1.6,nt,nt,nt,i
Cc1ccc2oc(=O)cc(CN3CCCCC3)c2c1,0.4,0.68,4,2,-0.7,4,5,-1.6,i
O=C(CSc1nnc2ccccn12)Nc1ccccc1C(=O)NC1CC1,-3.4,0.74,-4,-3,-1.8,nt,nt,nt,nt
O=C(NCCCN1CCOCC1)c1ccc(S(=O)(=O)Nc2cccc(C(F)(F)F)c2)cc1,1.6,0.65,-2,2,4.3,-2,-5,-0.9,i
O=C(O)c1nccnc1C(=O)Nc1ccc(S(=O)(=O)N2CCOCC2)cc1,4.2,0.6,2,6,1.7,23,8,1.7,i
N#Cc1ccccc1S(=O)(=O)N1CCN(c2nc(-c3ccccc3)nc3ccccc23)CC1,2.6,nt,nt,nt,nt,7,4,-0.4,i
COc1cccc(-c2nn(-c3ccccc3)cc2/C=C(/NC(=O)c2ccccc2)C(=O)O)c1,3.1,0.69,5,-7,1.5,-5,-6,-2.5,i
CCC(C)NC(=O)NCc1ccccc1F (stereo unspecified),3.9,0.71,0,6,1.5,9,10,2.4,i
Cc1nn(Cc2ccc(F)cc2)c(Cl)c1/C=N/NC(=O)c1ccccc1,0.6,nt,6,9,nt,11,7,0.8,i
COc1ccc(-c2cc(=O)oc3c(C)c(OC(C)C(=O)NCc4ccccn4)ccc23)cc1 (stereo unspecified),2.7,0.78,-9,-13,-1.1,nt,nt,nt,i
CCC(=O)NCCCc1nc2ccccc2n1Cc1ccccc1F,-2.2,0.64,-12,-1,-1.1,12,3,1.2,i
CCc1nc2c(OCc3ccc(C(F)(F)F)cc3)cccn2c1N(C)C(C)=O,-4.4,nt,nt,nt,nt,-3,-22,1.1,i
# Following part:
SMILES,HNF4A DNA FP,E coli growth,ALR H2O2 inh,B2AR ag,UCH37 inh,Ecoli rRNA inh,Ecoli rRNA inh OD600,Ecoli rRNA inh RFP,FGF22 binding
CC1(C(=O)NS(=O)(=O)C2CC2)CCN(C(=O)c2cccc(Cl)c2)C1 (stereo unspecified),15,nt,nt,nt,nt,5,6,1.0,i
O=C1CCCN1CCCN=c1c([N+](=O)[O-])nn(-c2ccc(Cl)cc2)n1O,1.4,0.62,nt,-4,6.5,-21,-16,-4.5,i
Cc1cccc(S(=O)(=O)NC(=O)C2(C)CCN2C(=O)CCC2CCCC2)c1 (stereo unspecified),-4.3,nt,nt,nt,nt,2,2,-1.6,i
CC(=O)c1ccc(S(=O)(=O)N2CCn3cccc3C2C)cc1 (stereo unspecified),0.2,0.66,-3,3,0.1,4,11,1.9,i
CC12CCC(C(=O)NNc3ccc([N+](=O)[O-])cc3)(CC1=O)C2(C)C (stereo unspecified),-0.6,0.7,-16,2,7.3,nt,nt,nt,i
N#CC1C(=N)Cc2ccccc2-c2ccccc21 (stereo unspecified),3.9,0.62,nt,-9,4.2,-63,-80,-21,i
CC(C)CN(C(=O)CCNC(=O)c1ccccc1Cl)C1CCS(=O)(=O)C1 (stereo unspecified),0.0,0.65,-5,5,0.0,12,18,2.2,i
CCC(C)NC(=O)C1=C(C)C(=O)OC12CCC(C)CC2 (stereo unspecified),1.0,0.74,4,-17,2.1,0,9,-7.7,i
O=C(CN1CCN(S(=O)(=O)c2ccccc2)CC1)Nc1ccc(Cl)c(Cl)c1,0.6,0.7,-15,6,4.2,nt,nt,nt,nt
Cn1c(=O)oc2cc(S(=O)(=O)N3CCCCC3)ccc21,1.9,nt,-1,-1,nt,9,12,-1.7,i
O=C(O)COc1ccc(Br)cc1/C=N\Nc1ccccn1,2.4,nt,9,17,nt,nt,nt,nt,nt
O=C(O)CSc1ncnc2sc(-c3ccccc3)cc12,0.0,nt,-5,7,nt,-37,-52,-25,i
O=C1c2ccccc2C(=O)c2c1oc(C(F)(F)F)c2C(=O)c1ccccc1,-1.6,0.71,-35,10,24*,nt,nt,nt,nt
O=C(Nc1nnc([C@@H]2C[C@H](O)[C@@H](CO)O2)s1)c1cccc(OC(F)(F)F)c1,4.0,nt,nt,nt,nt,6,14,2.7,i
N#Cc1cc2ccccc2n2nnnc12,-2.4,0.7,-5,-6,0.6,4,7,-0.8,i
CC1CCCN(S(=O)(=O)c2csc(C(N)=O)c2)C1 (stereo unspecified),2.4,0.72,6,-2,1.6,8,-3,-0.5,i
COC(=O)CSc1snnc1-c1ccc(Cl)cc1Cl,1.7,0.72,-6,-3,0.5,nt,nt,nt,nt
Cc1cccc(NC(=S)N/N=C/c2cccn2Cc2ccc(F)cc2)c1,-5.1,nt,-3,4,nt,-16,7,25,i
CC(=O)[C@@]1(O)CC[C@H]2[C@@H]3CCC4=CC(=O)CC[C@]4(C)[C@H]3CC[C@@]21C,-0.6,nt,2,5,0.9,nt,nt,nt,i
COc1ccc(C(=O)NCC2CCCN2S(=O)(=O)c2cccs2)cc1 (stereo unspecified),1.5,0.65,-6,-5,0.9,7,0,0.8,nt
CCNC(=O)Nc1ccc(S(=O)(=O)Nc2cnc(C)nc2C)cc1,1.7,0.71,-4,2,0.1,5,7,1.7,i
CCN(CC)C(=O)NCc1c(C)cc(C)cc1C,0.3,0.63,0,0,2.7,nt,nt,nt,nt
O=C(O)COc1ccccc1/C=N/n1c(C2CCCCC2)n[nH]c1=S,3.9,nt,97*,0,nt,11,1,-5.2,i
C[C@H]1CN([C@@H](C)CO)C(=O)c2cccc(NC(=O)Nc3ccc(C(F)(F)F)cc3)c2O[C@@H]1CN(C)Cc1ccc(Cl)c(Cl)c1,0.5,nt,-3,11,1.5,0&-6,-3&-5,0.7&-1.1,i
Cn1c(=O)c2c(SCC(=O)NCc3ccco3)nc(-c3ccccc3Cl)nc2n(C)c1=O,-8.3,0.73,2,-2,1.5,nt,nt,nt,i
# Additional results follow:
SMILES,HNF4A DNA FP,E coli growth,ALR H2O2 inh,B2AR ag,UCH37 inh,Ecoli rRNA inh,Ecoli rRNA inh OD600,Ecoli rRNA inh RFP,FGF22 binding
CCCCN(CC(=O)NC1CC1)S(=O)(=O)c1ccc(OCC)cc1,2.2,0.69,nt,-6,-2.3,3,7,-0.9,i
COc1ccc(-c2cc(C(=O)Nc3ccc(NC(C)=O)cc3)[nH]n2)c(C)c1,0.9,nt,nt,nt,nt,12,19,4.3,i
CCc1cccc(NC(=S)N(CCCN2CCOCC2)C(C)c2cc3cccc(OC)c3o2)c1 (stereo unspecified),-1.1,0.68,-5,3,7.2,-2,-2,19,i
COc1ccc(S(=O)(=O)n2oc(=O)cc2-c2ccccc2)cc1OC,0.6,0.74,14,2,1.8,nt,nt,nt,nt
COc1ccc(CNC(=O)CC2Sc3ccccc3NC2=O)cc1 (stereo unspecified),0.6,0.73,-6,-2,4.0,3,-6,2.7,nt
CC1CCCCC1NC(=S)NC(=O)c1ccccc1Br (stereo unspecified),-1.0,0.68,nt,-1,1.5,nt,nt,nt,nt
CC(OC(=O)CCc1nc(=O)c2ccccc2n1C)C(=O)NCc1ccc2c(c1)OCO2 (stereo unspecified),-3.0,0.67,-3,-4,4.7,9,10,0.6,i
CCOC(=O)c1ccc(NC(=O)C2(c3ccccc3)CCCC2)cc1,3.6,0.69,-22,-1,1.6,nt,nt,nt,nt
COc1ccc(OC)c(C2=NNC(=NCc3ccc4c(c3)OCO4)SC2)c1,0.0,0.7,2,8,2.4,-6,-5,-0.2,i
CC(C)(C)OC(=O)N1CCC(C(=O)NNC(=O)c2ccc(Cl)cc2Cl)CC1,-0.3,0.72,-9,-9,1.7,1,7,4.0,i
CCCCN1C(=N)N([C@@H](C)CN2CCC[C@H]2CN2C(N)=NC[C@H]2CC(C)C)C[C@H]1Cc1ccccc1,2.7,nt,8,-7,-0.9,-21,-15,26,i
CCOC(=O)c1c(C)[nH]c(C)c1C(=O)COC(=O)c1ccc(S(=O)(=O)N(CC)CC)cc1,-0.2,0.71,-1,0,3.4,nt,nt,nt,nt
COC(=O)c1cc(=O)n(-c2ccccc2)c(=Nc2ccccc2)s1,2.2,0.79,4,18,3.4,-1,7,-2.1,i
Cc1nc2ccccc2c2oc(C(=O)N3CC(C)CC(C)C3)cc12 (stereo unspecified),3.4,0.67,-9,-4,1.1,-6,-19,1.5,i
O=c1[nH]c(C2CCN(S(=O)(=O)c3ccccc3)CC2)nc2c1nnn2Cc1c(F)cccc1Cl,2.3,0.73,-8,-4,4.9,-11,-19,2.2,i
NC(=O)c1cc(Sc2ccccc2)nc2ccccc12,1.9,0.64,nt,-8,4.1,3,22,-2.5,i
CC(=O)c1ccccc1NC(=O)CC1(CC(=O)O)CCCCC1,3.1,0.69,-13,4,2.0,5,3,0.4,i
COc1cccc(C(=O)N2CCN=C2SC)c1,-1.6,0.7,4,2,4.7,4,8,-1.3,i
CN(C)S(=O)(=O)c1cc(NC(=O)COC(=O)c2ccc3c(c2)OCO3)ccc1Cl,-2.2,0.72,8,-7,4.8,nt,nt,nt,nt
O=C(COc1ccc2ccc(=O)oc2c1)Nc1cccc(S(=O)(=O)N2CCCCC2)c1,3.8,0.67,-2,7,-13,nt,nt,nt,i

# Gathered by group, those above containing bromine (3)
SMILES,HNF4A DNA FP,E coli growth,ALR H2O2 inh,B2AR ag,UCH37 inh,Ecoli rRNA inh,Ecoli rRNA inh OD600,Ecoli rRNA inh RFP,FGF22 binding
O=C(O)c1ccccc1C(=O)Nc1ccc(Br)c2cccnc12,1.5,0.67,-31,-1,3.0,-1,-6,3.5,nt
O=C(O)COc1ccc(Br)cc1/C=N\Nc1ccccn1,2.4,nt,9,17,nt,nt,nt,nt,nt
CC1CCCCC1NC(=S)NC(=O)c1ccccc1Br (stereo unspecified),-1.0,0.68,nt,-1,1.5,nt,nt,nt,nt

# Only part of the results is shown, so the mix of outcomes need not match the whole.
